Screening data (PubChem BioAssay)
LASV entry inh – qHTS for Inhibitors of binding or entry into cells for Lassa Virus | Potency, µM (highest dose often 37.9 µM), for the others: top-dose activity change, negative = inhibition, hits mostly inhibitors | 300,000 compounds, 1.2% hits | Lassa virus pseudotype entry inhibition, cell reporter; control for the full effect not named in the record; active means well fitted inhibition curve with a large enough effect; inconclusive means small, poorly fitted or top-dose-only effect, or effect the other way; inactive means flat fitted curve, though single readings scatter; tested in HEK293 cells; further: on the % scale 0 is the no-effect control and ±100 the full control effect; nearly all actives have a fitted effect of over 50% in size; luciferase read-out
Cruzain Triton – qHTS Assay for Promiscuous and Specific Inhibitors of Cruzain (with detergent); Cruzipain (Trypanosoma cruzi), P25779; purified cruzain, Z-FR-AMC fluorescence, 0.01% Triton; Potency, µM, for inactives: max response, negative = inhibition, hits mostly inhibitors; 200,000 compounds, 0.43% hits; AID 1478, 2009;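 further: plate controls were neutral wells for no effect and buffer without enzyme for full effect; nearly all actives have a fitted effect of over 40% in size; top concentration of the series not given in the record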
Target sequence (P25779 123-467 limits assumed): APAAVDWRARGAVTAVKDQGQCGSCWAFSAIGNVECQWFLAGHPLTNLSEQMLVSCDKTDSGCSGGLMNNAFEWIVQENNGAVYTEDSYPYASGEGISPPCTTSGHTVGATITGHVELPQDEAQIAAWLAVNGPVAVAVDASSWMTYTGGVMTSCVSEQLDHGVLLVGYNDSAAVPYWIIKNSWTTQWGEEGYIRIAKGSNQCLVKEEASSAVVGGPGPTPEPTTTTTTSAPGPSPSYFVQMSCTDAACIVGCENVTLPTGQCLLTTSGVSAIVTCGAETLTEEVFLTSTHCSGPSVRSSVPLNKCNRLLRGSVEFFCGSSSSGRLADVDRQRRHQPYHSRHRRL
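Compounds were screened in titration against cruzain (1.5 nM) with 0.01% Triton X-100 to counter colloidal aggregation. Activity was the AMC fluorescence increase over 60 s after adding 2 uM Z-FR-AMC at pH 5.5.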
MARV entry inh – qHTS for inhibitors of binding or entry into cells for Marburg Virus; Marburg virus pseudotyped entry inhibition, cell reporter; control for the full effect not named in the record; about a third of the inactives were read at about 46 µM; Potency, µM (titrated, usually from 37.8 µM), inactives show top-dose activity change, negative = inhibition, actives largely listed as inhibitors; 300,000 compounds, 1.8% hits; AID 540276, 2011; active = well fitted inhibition curve with a large enough effect; inconclusive = small, poorly fitted or top-dose-only effect, or effect the other way; inactive = flat fitted curve, though single readings scatter; tested in HEK293 cells; about a fifth of its hits are not listed in these tables; further: on the % scale 0 is the no-effect control and ±100 the full control effect; luciferase read-out
Cruzain inh noDet – qHTS Assay for Promiscuous and Specific Inhibitors of Cruzain (without detergent); Cruzipain (Trypanosoma cruzi), P25779; purified cruzain, Z-FR-AMC fluorescence, no detergent; Potency, µM, for the others: max response, negative = inhibition, hits mostly inhibitors; 200,000 compounds, 2.3% hits; AID 1476, 2009;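 further: plate controls were enzyme without inhibitor for no effect and buffer without enzyme for full effect; nearly all actives have a fitted effect of over 40% in size; top concentration of the series not given in the record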
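Purified cruzain at 1.5 nM, pre-incubated 15 min with compound at room temperature in 100 mM sodium acetate pH 5.5, 5 mM DTT, 0.00005% Triton X-100. Reaction started with 2 uM Z-FR-AMC; AMC fluorescence increase over 60 s gives rate.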
NS1 inh – qHTS Assay for Inhibitors of Influenza NS1 Protein Function | S. cerevisiae slowed by influenza A NS1, growth recovery by OD600 | Potency, µM (top dose mostly 46.1 µM), for inactives: at the highest dose activity, positive = more growth | 270,000 compounds, 0.4% hits | AID 2326, 2010; active means well fitted rising curve with a large enough effect; inconclusive means small, poorly fitted or top-dose-only effect; inactive means no such curve, though single readings can be large or run the other way; further: nearly all actives have a fitted effect of over 50% in size
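Compounds were scored for reversing the slow growth caused by influenza A NS1 in S. cerevisiae, measured by optical density at 600 nm. Assay medium contained 2% galactose at pH 6.0; NS1-free yeast of the same strain were the positive control.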
RE007 growth inh – qHTS Assay for Inhibitors of the HIV-1 protein Vpr | S. pombe RE007 Vpr strain, BacTiter-Glo ATP luminescence, 24 h; control for the full effect not named in the record | Potency, µM (titrated, usually from 92.2 µM), for the others: at the top dose activity change, negative = less growth | 360,000 compounds, 0.21% hits | AID 651644, 2012; active = well fitted falling curve with a large enough effect; inconclusive = small, poorly fitted or top-dose-only effect; inactive = no such curve, though single readings can be large or run the other way;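 further: on the % scale 0 is the no-effect control and ±100 the full control effect; nearly all actives have a fitted effect of over 50% in size; the assay follows cell death caused by Vpr and the record does not say whether a fall means rescue or toxicity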
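Fission yeast strain RE007, carrying one chromosomally integrated HIV-1 vpr copy, was seeded at OD 0.01 in PMG+AL medium with 23 nL pinned compound. After 24 h at 30 °C and 99% humidity, viability was read by BacTiter-Glo luminescence.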
2A StopGo – High Throughput Screening for Foot and Mouth Disease Virus Antivirals; human cells with a luciferase reporter of 2A StopGo recoding; control for the full effect not named in the record; Potency, µM (highest dose often 57.9 µM), for the others: at the top dose signal change, negative = less light; 410,000 compounds, 1.2% hits; active = well fitted falling curve with a large enough effect; inconclusive = small, poorly fitted or top-dose-only effect; inactive = no such curve, though single readings can be large or run the other way; tested in HEK293T cells; further: on the % scale 0 is the no-effect control and ±100 the full control effect; nearly all actives have a fitted effect of over 45% in size; luciferase light after 4 h
SARS PLP yeast – qHTS of Yeast-based Assay for SARS-CoV PLP. S. cerevisiae expressing SARS-CoV PLpro, growth rescue; control for the full effect not named in the record. Potency, µM (titrated, usually from 32.9 µM), for the others: top-dose activity, positive = growth rescue. 330,000 compounds, 0.19% hits. AID 485353, 2010; active means well fitted rising curve with a large enough effect; inconclusive means small, poorly fitted or top-dose-only effect; inactive means no such curve, though single readings can be large or run the other way; further: 0% is about no effect; nearly all actives have a fitted effect of over 55% in size; growth read by luminescence after 48 h
The depositor's hits bear a star; u = inconclusive; x = not tested or not shown; & = joins results of further samples; [ ] = dose if it differs, or a comment. Unless noted, the call rests on the fitted dose curve; in most records, active means well fitted curve in the direction sought with a large enough effect; inconclusive means small, poorly fitted or top-dose-only effect, or another doubt; inactive means no such curve, though single readings can be large; an effect the other way counts as inactive or inconclusive. Potency means the concentration at half of the fitted maximal effect.

Order of values: Cruzain Triton	NS1 inh	SARS PLP yeast	RE007 growth inh	MARV entry inh	2A StopGo	LASV entry inh	Cruzain inh noDet
> COc1ccc(NC(=O)Cn2c(SCc3cc(C)ccc3C)nc3ccncc32)c(OC)c1OC
 : -9.4%	x	x	x	u	-18%	-4%[46.1 µM]	u
> Cc1ccc(OCC(=O)Nc2ccccc2C(=O)OCc2cc(=O)n3c(C)csc3n2)cc1
 : -0.9%	x	x	x	x	-26%	29%[46.1 µM]	3%
> Cc1ccc(Cc2nc(-c3ccncc3)no2)cc1
 : x	x	-1%	-14%	14%	-1%	-13%	x
> O=C(CSc1nnc(NC(=O)NC2CCCCC2)s1)Nc1ccccc1F
 : -4.0%	x	x	x	x	17%	u	-8%
> CCOC(=O)C1=C(CC)Nc2ccccc2N=C1NC(=O)c1ccc(S(=O)(=O)N(C)C)cc1
 : 1.1%	-13%	9%	u	-8%	5%	-10%	23%
> O=C(c1ccco1)N1CCN(CC(=O)N(C2CCCCC2)C2CCS(=O)(=O)C2)CC1 (configuration not stated)
 : 1.1%	0%	1%	0%	13%[46.1 µM]	-25%	-9%	-8%
> COc1ccc(C2(NC(C)=O)CCN(C(=O)c3cccs3)CC2)cc1
 : 0.9%	-1%	-10%	16%	23%	3%	-1%	4%
> CCCn1c2c(c(O)c(C(=O)NCc3ccccc3)c1=O)CCCC2
 : -3.1%	-1%	-11%	-2%	-6%	-11%	-24%	-1%
> Cc1ccc(C(C)(C)C)c(OCCCn2ccnc2)c1
 : -0.4%	-30%	-42%	3%	u	u	-27%	-4%
> CCCOc1ccc(CNC(=O)c2ccc3nc(N4CCOCC4)sc3c2)cc1
 : x	-17%	2%	-1%	x	4%	x	x
> CS(=O)(=O)N1CCC(C(=O)Nc2ccc(C(F)(F)F)cc2)CC1
 : x	x	0%	3%	27%[46.1 µM]	-8%	0%	x
> CC(=O)OCCCNc1cc(Sc2ccc(Cl)cc2)c2nonc2c1[N+](=O)[O-]
 : -11%	-28%	2%	-7%	7%	32µM*	15%	13%
> COC(=O)c1ccccc1NC(=O)Cn1c(=O)n(-c2cccc(C(F)(F)F)c2)c(=O)c2c(C)c(C)sc21
 : -3.5%	x	x	x	7%[46.1 µM]	-16%	u	-10%
> Cc1cccc(C)c1OCC(=O)NNC(=O)CNC(=O)c1ccc(OC(F)F)cc1
 : x	x	-2%	9%	-6%	-25%	-21%	x
> Cc1nn(C)cc1NC(=O)CCSc1nc(-c2ccco2)cc(C(F)(F)F)n1
 : 1.7%	4%	-2%	-1%	u	0%	-14%	24%
> O=C(CSc1n[nH]c(-c2ccc(F)cc2)n1)NCCc1ccccc1
 : 0.1%	x	x	x	x	-18%	-7%[46.1 µM]	-17%
> CCCCN(CC)C(=O)Nc1ccc2c(c1)N(C)C(=O)c1ccccc1S2
 : -4.8%	x	x	x	u	-21%	u	-5%
> COc1cccc(NC2SC(=O)N(c3ccccc3)C2=O)c1 (configuration not stated)
 : -0.1%	14%	-30%	-2%	u	22%	21%	-20%
> c1ccc2c(c1)CCN(Cc1nnnn1Cc1ccc3c(c1)OCO3)C2
 : -2.6%	-51%	3%	2%	0%	0%	1%	-8%
> Cc1cc(C)c(-n2c(O)c(/C=N/NC(=O)c3ccncc3)c(=O)[nH]c2=O)c(C)c1
 : x	-6%	2%	-6%	u	-2%	9%[46.1 µM]	x
> COc1ccc(CC(=O)N(C)Cc2cccc(F)c2)cc1S(=O)(=O)N1CCOCC1
 : x	x	2%	5%	0%	-3%	-14%	x
> Cc1cccc(C)c1OCc1nnc2c3cnn(C)c3ncn12
 : -0.8%	u	-1%	-3%	u	19%	u	10%
> CCOC(=O)c1c(N2C(=O)Nc3cc(Cl)c(Cl)cc3N2O)sc2c1CCCCC2
 : 25µM*	5%	-1%	18%	u	-4%	u	14%
> Cc1cc(C)n(-c2ccc(C(=O)Nc3ccc(S(=O)(=O)N(C)C)cc3)cc2)n1
 : -6.0%	-19%	29%	-9%	u	u	u	-5%
> CCOC(=O)C(C)Oc1ccc2c(-c3cccc([N+](=O)[O-])c3)cc(=O)oc2c1 (configuration not stated)
 : -8.3%	-9%	u	-8%	2%	-11%	4%	5%
> O=C(CNC(=O)c1ccc(Br)o1)NNC(=O)c1ccc(Cl)cc1
 : x	x	-21%	15%	2%	-7%	17%	x
> Cn1c(SCC(=O)OC2CCCCC2)nnc1-c1ccc2c(c1)OCO2
 : -1.5%	-14%	8%	8%	1%	-8%	26%	-3%
> CCOC(=O)c1cc(-c2ccccc2)sc1NC(=O)CSc1nncs1
 : -10%	-8%	17%	5%	-23%	-9%	6%	29%
> COc1ccccc1CCc1nnc(CCC(=O)NCC[C@@H]2C[C@@H]3C=C[C@H]2C3)o1
 : x	-3%	0%	-11%	12%[46.1 µM]	-1%	2%[46.1 µM]	x
> Cc1ccc([N+](=O)[O-])c2cccnc12
 : -3.9%	-15%	-4%	0%	-3%	-6%	1%	-8%

Among those listed so far, 2 have two or more sulfur atoms:
Order of values: Cruzain Triton	NS1 inh	SARS PLP yeast	RE007 growth inh	MARV entry inh	2A StopGo	LASV entry inh	Cruzain inh noDet
> O=C(CSc1nnc(NC(=O)NC2CCCCC2)s1)Nc1ccccc1F
 : -4.0%	x	x	x	x	17%	u	-8%
> CCOC(=O)c1cc(-c2ccccc2)sc1NC(=O)CSc1nncs1
 : -10%	-8%	17%	5%	-23%	-9%	6%	29%

Other structures
Order of values: Cruzain Triton	NS1 inh	SARS PLP yeast	RE007 growth inh	MARV entry inh	2A StopGo	LASV entry inh	Cruzain inh noDet
> CS(=O)(=O)Nc1cc2c3c(c1)CCC(=O)N3CCC2
 : x	0%	2%	-16%	x	-20%	x	x
> CCCCN1C(=N)C(CC)(CC)C(=O)NC1=O
 : -1.9%	7%	-2%	2%	9%	-19%	2%	-2%
> COc1ccc(-c2nn(-c3ccccc3)cc2C(=O)N2CCN(S(=O)(=O)c3ccccc3C#N)CC2)cc1
 : x	x	-1%	16%	u	-10%	-23%[46.1 µM]	x
> Cc1cc(NC(=O)CCC(=O)N(c2ccccc2)C(C(=O)NC2CCCC2)c2ccncc2)no1 (configuration not stated)
 : -0.3%	-19%	7%	-10%	1%&-28%	-4%	-10%	1%
> CCCOc1cccc(-c2nn(-c3ccccc3)cc2/C=C(\C#N)C(=O)NCCCn2ccnc2)c1
 : -6.6%	18%	-15%	-20%	u	-9%	-14%	-8%
> Cc1n[nH]c(=O)c2c1nnn2Cc1ccccc1Cl
 : x	4%	-1%	22%	-4%	0%	3%	x
> CCOc1ccccc1NC(=O)CSc1nnc(-c2ccccc2Cl)n1Cc1ccco1
 : -12%	-3%	-3%	29%	u	0%	-17%	2%
> COc1ccccc1N(CC(=O)NC(C)(C)C)C(=O)CCC(=O)Nc1nccs1
 : x	22%	-1%	3%	x	25%	x	x
> CCOC(=O)C1=C(CCc2ccccc2)NC(=O)NC1c1ccc(Br)cc1 (configuration not stated)
 : x	15%	-7%	3%	x	-11%	x	x
> COc1ccc(Cn2c(-c3ccc(Br)cc3)c[n+]3ccccc23)cc1
 : -3.4%	-5%	-6%	-23%	x	4%	x	-6%
> CCc1ccccc1N1CN(Cc2ccco2)CNC1=S
 : x	5%	0%	4%	x	7%	x	x
> CSc1nnc2c3ccccc3c3ccccc3c2n1
 : 5.3%	4%	-3%	-16%	-2%	6%	4%	-4%
> COc1ccccc1CNC(=O)COc1ccc([N+](=O)[O-])cc1
 : x	x	1%	-9%	u	-5%	4%	x
> Cc1cc(C)c2nc(N(CCN(C)C)C(=O)/C=C/c3cccs3)sc2c1
 : x	-3%	-5%	-10%	x	u	x	x
> CCCN(CCC)CCN1C(=O)C2C(C(=O)Nc3ccc(C)cc3)C3C=CC2(O3)C1C(=O)NC1CCCCC1 (configuration not stated)
 : x	-1%	-1%	2%	-7%[46.1 µM]	-6%	x	x
> Cc1ccc(NC2=NCCCCC2)cc1C
 : 5.1%	-2%	11%	20%	u	-20%	14%	-7%
> Cc1ccc(NC(=O)C(C)OC(=O)Cn2cnc3ccccc3c2=O)cc1 (configuration not stated)
 : x	x	-1%	4%	17%	2%	0%	x
> CCOC(=O)C1CCN(S(=O)(=O)c2ccc3[nH]c(=O)oc3c2)CC1
 : 4.1%	3%	3%	6%	x	0%	x	-1%
> CC(C)c1ccc(NC(=O)C(c2ccc3c(c2)OCO3)N2CCCCC2)cc1 (configuration not stated)
 : 0.6%	-6%	-6%	-11%	x	-2%	x	-2%
> COc1ccc(Br)c(C(=O)N2CCN(S(=O)(=O)c3cccs3)CC2)c1
 : x	17%	1%	4%	x	3%	x	x
> CCCCC(=O)Nc1nn(CCC)c2nc3ccccc3cc12
 : -19%	-4%	0%	16%	-6%[46.1 µM]	-2%	-10%	-18%
> Cc1c(-c2ccccc2)[n+](=O)c2c(n1[O-])CCC2
 : -8.4%	4%	18%	9%	12%	3%	16%	-2%
> CCN1CCCC1CNC(=O)C(=O)NCc1ccccc1 (configuration not stated)
 : x	x	2%	1%	0%[46.1 µM]	-8%	11%[46.1 µM]	x
> Cc1ccc2nc(NC3=NCN(C4CCCCC4)CN3)nc(C)c2c1
 : 4.2%	9%	7%	x	2%	x	x	6%
> CCCCOc1ncnc2c1[nH]c1ccccc12
 : 0.5%	-98%	-25%	u	u	u	-11%	6%
> Cc1cc(C(=O)NCCCN2CCN(c3cc(Cl)ccc3C)CC2)n(-c2ccccc2)n1
 : -3.3%	-2%	-5%	8%	6%	u	x	-5%
> Cc1ccc(NC(=O)CCNC(=O)c2ccco2)cc1
 : -5.0%	-5%	-10%	-4%	u	-13%	-3%	26%
